Source: PubChem BioAssay (National Center for Advancing Translational Sciences (NCATS))
VDR inhibitor: Inhibitors of the vitamin D receptor (VDR): qHTS. Vitamin D3 receptor (Homo sapiens), P11473. VDR-SRC2-3 peptide fluorescence polarization, 2 h. Potency, µM, without a hit: max response, negative = inhibition, usual class: inhibitors. 0.93% of 400,000 active; active = well fitted inhibition curve with a large enough effect; inconclusive = small, poorly fitted or top-dose-only effect, or another doubt; inactive = no such curve, though single readings can be large or run the other way; also: series mostly up to about 120 µM
Target sequence (P11473 whole entry, looked up): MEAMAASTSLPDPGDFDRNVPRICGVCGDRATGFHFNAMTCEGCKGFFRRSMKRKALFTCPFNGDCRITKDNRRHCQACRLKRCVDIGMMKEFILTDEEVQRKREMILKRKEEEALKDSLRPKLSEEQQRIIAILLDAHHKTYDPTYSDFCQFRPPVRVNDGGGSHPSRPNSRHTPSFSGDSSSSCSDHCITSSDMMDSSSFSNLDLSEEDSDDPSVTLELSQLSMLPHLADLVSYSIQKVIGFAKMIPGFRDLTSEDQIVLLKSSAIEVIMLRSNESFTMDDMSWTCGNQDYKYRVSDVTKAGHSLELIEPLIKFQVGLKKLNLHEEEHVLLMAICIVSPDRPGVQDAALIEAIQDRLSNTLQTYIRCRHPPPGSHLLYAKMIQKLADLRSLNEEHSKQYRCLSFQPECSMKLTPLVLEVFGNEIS
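Compounds are added to VDR with labelled SRC2-3 coactivator peptide and held 2 h at room temperature. Inhibition of the VDR–peptide interaction is then read as a change in fluorescence polarization.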
An asterisk follows results filed as active; u = inconclusive; & = joins results of further samples; [ ] = remark or other dose. % is scaled to controls: 0 for no effect and ±100 for the full control effect; potency is read from the fitted curve at half-maximal effect.

SMILES | VDR inhibitor
O=C(Oc1ccc(Cl)c2cccnc12)N1CCCCCC1 | -5%
CN(C)c1ncc2nc(-c3ccc(F)cc3)c(=O)n(C[C@H]3CCCO3)c2n1 | 1%
c1ccc(-c2c3ccccc3nc3[nH]c4ccccc4c23)cc1 | -8%
CCCCCC/C=C/c1ccc(OC)c(C2C3C=CCC(C)C3C(=O)N2Cc2ccccc2)c1 (stereo not drawn) | -15%
Cc1nn2c(NCCCN(C)C)c3c(nc2c1-c1ccccc1)CCCC3 | 1%
O=C(NCc1ccco1)c1cccc(S(=O)(=O)N2CCCC2)c1 | -2%
O=C(Nc1cccc(C(F)(F)F)c1)Oc1ccc(Cl)c2cccnc12 | 6%
COc1ccc(CNC(=O)/C(C#N)=C2\N=C(NC(=O)c3cccs3)c3ccccc32)cc1 | -3%
CCOC(=O)C(Cc1ccccc1)NC(=O)CCc1nnc2ccc(N3CCOCC3)nn12 (stereo not drawn) | 1%
Cc1ccc(S(=O)(=O)N2CCN(S(=O)(=O)N3CCOCC3)CC2)cc1C | -5%
Cc1ccc(C(C)C)cc1OCCn1cncn1 | -9%
O=C1c2cccnc2C(=O)N1Cc1cccs1 | -4%
COc1ccc(OCC(=O)Nc2ccccc2-c2ccccc2)cc1 | 2%
CCOC(=O)c1cnc(SCC(=O)NNC(=O)c2ccco2)nc1N | -13%
O=C(Cc1n[nH]c(=O)c2ccccc12)NCc1ccccn1 | -10%
COc1cccc(OCC(=O)N(C)Cc2nc(-c3cccc(C)c3)no2)c1 | -6%
CN1CCN(CCCNC(=O)CCN2C(=O)COc3ccccc32)CC1 | -8%
CN(C)Cc1cccc([N+](=O)[O-])c1O | -7%
COc1cc(CNCC(O)c2ccccc2)ccc1OCc1ccc(Cl)nc1 (stereo not drawn) | 17%
CC(=O)c1sc(NC(=O)CCN2C(=O)C3CC=CCC3C2=O)nc1-c1ccccc1 (stereo not drawn) | 13%
O=S(=O)(NCCc1ccncc1)c1ccccc1 | -3%
COCCNC(=O)c1ccccc1NC(=O)Cc1ccccc1[N+](=O)[O-] | 6%
CCn1c(C)nc2cc(C(=O)NNC(=O)c3ccc(Cl)nc3)ccc21 | 18%
CC(C)(C)[C@H]1COC(=O)[C@@H](Cc2ccc(F)cc2)C/C=C\C[C@@H](CC(=O)N[C@H](CO)Cc2ccccc2)C(=O)N1 | -4%
Cc1ccc(C(=O)N2CCN(c3ccc(C(F)(F)F)cn3)CC2)c(C)c1 | 3%
CCN1CCC(N(Cc2cccc(OC)c2)C(=O)Nc2cccc(C)c2C)CC1 | -2%
CCN(CC)S(=O)(=O)c1ccc2c(c1)N(CC(=O)Nc1cccc(C)c1C)C(=O)C1CCCN21 (stereo not drawn) | 0%
C/C=C(\C)CN1CCC(n2nccc2NC(=O)c2ccc(OC)cc2)CC1 | 1%
CC(NCCO)C(=O)C12CC3CC(CC(C3)C1)C2 (stereo not drawn) | 14%
O=C(CSc1ccccc1)NCCSCc1ccccc1 | -14%
Cc1ccc(NC(=O)N2CCCC2C(=O)Nc2ccc3c(c2)OCCO3)cc1 (stereo not drawn) | 0%
CCCCc1cc(=O)oc2c(CN(C)C)c(O)c(Cl)cc12 | -15%
Cc1cc2nnc(SCC(=O)N3CCOCC3)n2c2ccccc12 | -6%
CC(O)[C@@H]1NC(=O)[C@H](CCCN)NC(=O)[C@@H](Cc2c[nH]c3ccccc23)NC(=O)[C@H](Cc2ccc(O)cc2)NC(=O)[C@@H](NC(=O)[C@H](N)Cc2ccccc2)CSSC(C)(C)C(C(=O)N[C@H](C(N)=O)[C@@H](C)O)NC1=O (stereo partly drawn) | 2%
CC(C)n1cnc2c(NCc3ccccc3)cc(N[C@H](C)CO)cc21 | -4%
CCCc1c(C(=O)N2CCN(c3ccccc3OC)CC2)cnn1-c1ccccc1 | -8%
O=C(Cc1ccccc1[N+](=O)[O-])OCC(=O)c1c[nH]c2ccccc12 | -11%
C/C(=N\NC1=NCCN1)c1ccccc1 | -22%
Cc1cc(C)c2nc(C)cc(Nc3ccc(C(=O)NCCO)cc3)c2c1 | -14%
O=C(O)CNc1nc(Cl)ccc1[N+](=O)[O-] | 4%
COc1ccc(N2CCN(C(=O)CN(c3ccccc3)S(C)(=O)=O)CC2)cc1 | -13%
CCOc1ccccc1N1CC(c2nc3ccccc3n2CCCCOc2ccccc2)CC1=O (stereo not drawn) | 18%
O=c1oc2ccccc2cc1-c1ccc(O)cc1 | u
O=c1c2c3c(sc2n(Cc2ccc(F)cc2Cl)c(=O)n1-c1ccc(Cl)cc1)CCC3 | 2%
CCOc1ccc2[nH]cc(C(=O)NCc3ccccc3)c(=O)c2c1 | -11%
O=C(COC(=O)CCSc1ccccc1)Nc1ccc(F)cc1Cl | 8%
COc1cc(C(C)=O)ccc1OCC(=O)N(CCC1=CCCCC1)c1c(N)n(Cc2ccccc2)c(=O)[nH]c1=O | -7%
COc1ccc(NC(=O)c2ccc(NC(=O)CN3CCC(C(N)=O)CC3)cc2)cc1 | -4%

Laid out differently: results already given.
Structure: C/C=C(\C)CN1CCC(n2nccc2NC(=O)c2ccc(OC)cc2)CC1
- VDR inhibitor: 1%
Structure: CC(NCCO)C(=O)C12CC3CC(CC(C3)C1)C2 (stereo not drawn)
- VDR inhibitor: 14%
Structure: O=C(CSc1ccccc1)NCCSCc1ccccc1
- VDR inhibitor: -14%
Structure: Cc1ccc(NC(=O)N2CCCC2C(=O)Nc2ccc3c(c2)OCCO3)cc1 (stereo not drawn)
- VDR inhibitor: 0%

3 of the compounds above, field by field.
smiles: COc1ccc(N2CCN(C(=O)CN(c3ccccc3)S(C)(=O)=O)CC2)cc1
  VDR inhibitor: -13%
smiles: CCOc1ccccc1N1CC(c2nc3ccccc3n2CCCCOc2ccccc2)CC1=O (stereo not drawn)
  VDR inhibitor: 18%
smiles: O=c1oc2ccccc2cc1-c1ccc(O)cc1
  VDR inhibitor: u

(continued)
SMILES | VDR inhibitor
COc1cccc(NC(=O)c2cccc(C)c2[N+](=O)[O-])c1 | 7%
O=C(O)C1(Nc2ccccc2Cl)CCCC1 | -6%
O=C(CN1CCC(n2nnc3ccccc32)CC1)NCc1cccs1 | 1%
CC(C)OC(=O)c1cc(NC(=O)C2C3C=CC(O3)C2C(=O)O)cc(C(=O)OC(C)C)c1 (stereo not drawn) | -29%
CCN(c1ccc(OC)cc1)c1ncnc2nc[nH]c12 | 1%
CCOC(=O)C1=C(C)N=c2s/c(=C/c3ccccc3)c(=O)n2C1c1ccc(OC)c(OC)c1 (stereo not drawn) | -10%
COc1ccc(NC(=O)Cc2c(C)n(C(=O)c3ccc(Cl)cc3)c3ccc(OC)cc23)cc1 | -9%
Cc1cc(C)c(-c2csc(NC(=O)COC(=O)c3ccc4c(c3)OCO4)n2)c(C)c1 | -8%
COc1ccc(S(=O)(=O)NCCOc2ccccc2)cc1OC | -7%
COc1cccc(NC(=O)C2CCC(CNS(=O)(=O)c3cccs3)CC2)c1 (stereo not drawn) | 0%
Nc1cc(=O)n(Cc2ccccc2)c(=O)n1Cc1ccccc1 | -14%
Cc1ccc(NC(=O)CN2CCCCCC2)cc1Br | -4%
Fc1cccc2sc(N3CCOCC3)nc12 | 3%
CC(C)OCC1Cn2c(nc3c2c(=O)n(C)c(=O)n3C)O1 (stereo not drawn) | -4%
Cc1ccc2nc(SCC(=O)Nc3ccccc3N3CCOCC3)c(C#N)cc2c1 | -10%
C#CCOc1c(Cl)cc(/C=N/O)cc1OC | 4%
CCC(=O)N1CCc2cc(CNC(=O)c3ccc(C#N)cc3)ccc21 | 12%
CCCCn1c(SCC(=O)Nc2ccc(NC(C)=O)cc2)nc2ccccc2c1=O | 26%
COCCNC(=O)c1ccccc1NC(=O)c1ccc(OC)c(OC)c1 | 18%
O=C(OCC(=O)N(CCc1ccccc1)Cc1ccccc1)c1cc(S(=O)(=O)N2CCOCC2)ccc1F | 2%
O=C(Nc1noc2ccccc12)c1ccc(F)cc1 | -1%
COc1c(F)c(F)c(C(=O)Nc2c(C)cc(Br)cc2C)c(F)c1F | -15%
O=C(NC(=S)Nc1cc(C(F)(F)F)ccc1N1CCOCC1)c1ccc(-c2cccc(Cl)c2)o1 | 10%
CS(=O)(=O)N1N=C(c2ccco2)CC1c1ccco1 (stereo not drawn) | -18%
CCC1(C)Cc2nc(Cl)c(C#N)cc2CO1 (stereo not drawn) | -14%
NS(=O)(=O)c1ccc(NNC(=O)c2cccs2)cc1 | 40%[activator]
COCC(=O)N1CCC[C@@]2(CCN(Cc3nccs3)C2)C1 | 2%
CC(C)CCNC(=O)CN(C)S(=O)(=O)c1cccc2nsnc12 | 15%
COc1ccc(S(=O)(=O)Nc2ccccn2)cc1C(=O)Nc1ccccc1 | -10%
c1csc(CNc2ncnc3ccc(-c4ccc5c(c4)OCCO5)cc23)c1 | -17%
Cc1ccc(C(=O)Nc2nnc(C)s2)cc1 | 5%
Cc1ccc(NC(=O)C(NC2CCCc3ccccc32)c2ccccc2)cc1Cl (stereo not drawn) | 19%
COc1ccc(NS(=O)(=O)c2cc3c4c(c2)CCN4C(=O)CC3)cc1OC | -2%
CCOP(=O)(OCC)C(NC(=O)Nc1ccc(Cl)cc1)c1ccccc1 (stereo not drawn) | -5%
CC1CCCC(NC(=O)c2cccc(N3CCCC3=O)c2)C1C (stereo not drawn) | 4%
Cc1ccc(S(=O)(=O)Nc2cccc(N(C)S(C)(=O)=O)c2)cc1[N+](=O)[O-] | -14%
O=C(CNC(=O)c1ccc(Cl)cc1Cl)OCc1nnc(-c2ccccc2Br)o1 | 0%
S=c1nc(-c2ccccc2)[nH]c2ccccc12 | -5%
CN(Cc1ccon1)C(=O)CCc1nnc(Cc2ccc(-c3ccccc3)cc2)o1 | -4%
C=C1C[C@H](O[C@@H]2O[C@H](CO)[C@@H](O)[C@H](O)[C@H]2O)[C@@H]2[C@H](OC(=O)[C@H]2C)[C@H]2[C@H](C)[C@@H](O)C[C@@H]12 | -14%
CCCn1c(=O)c(C(=O)Nc2cc(C)ccn2)c(O)c2ccccc21 | -12%
CCOC(=O)C1(NC(=O)C2(N3C(=O)c4ccccc4C3=O)CCCC2)CCCC1 | 1%
COc1cccc(CNC(=O)C2CCN(C(=O)N3CCOc4ccc(Cl)cc43)CC2)c1OC | 2%
COc1cccc(OC)c1OCCCOc1cccc2cccnc12 | 8%
CCCS(=O)(=O)N1CC(=O)N(c2ccccc2C)C(C)(C(=O)NC2CCCC2)C1 (stereo not drawn) | -8%
CCc1cc(C(=O)Nc2ccc(C)cc2Br)cs1 | 2%
O=C(Nc1ccccc1F)C(c1ccccc1)c1ccccc1 | 5%
CN(C)/C=N/c1nc2ccc3c(c2s1)CCCC3 | 5%

Some values from the list:
VDR inhibitor, CN(C)/C=N/c1nc2ccc3c(c2s1)CCCC3 is entered as 5%
VDR inhibitor, CN(Cc1ccon1)C(=O)CCc1nnc(Cc2ccc(-c3ccccc3)cc2)o1 is entered as -4%
VDR inhibitor, S=c1nc(-c2ccccc2)[nH]c2ccccc12 is entered as -5%
VDR inhibitor, CCCS(=O)(=O)N1CC(=O)N(c2ccccc2C)C(C)(C(=O)NC2CCCC2)C1 (stereo not drawn) is entered as -8%
VDR inhibitor, CCOC(=O)C1(NC(=O)C2(N3C(=O)c4ccccc4C3=O)CCCC2)CCCC1 is entered as 1%

The listing continues.
SMILES | VDR inhibitor
O=c1onc(-c2cccnc2)n1-c1ccccc1F | 1%
COc1cc(C(N)=O)cc(Cl)c1OC | -9%
COc1ccc(C(=O)N/N=C/c2ccc(OC)c(COc3c(F)c(F)cc(F)c3F)c2)cc1 | 2%
COC(=O)c1sccc1NC(=O)COc1ccc(Cl)cc1 | -5%
CN(C)S(=O)(=O)N1CCC(Cc2ccccc2)CC1 | 5%
O=C(NCCN1CCN(C(=O)c2ccc(F)cc2)CC1)c1ccc(F)cc1 | 7%
Cc1c(C(=O)NCc2ccc3c(c2)OCO3)oc2ccc(S(=O)(=O)N3CCCCC3)cc12 | 1%
COc1cccc(N2C(=O)CC(N3CCN(c4ccc([N+](=O)[O-])cc4)CC3)C2=O)c1 (stereo not drawn) | 1%
C/C(=N\NC(=S)Nc1cc(S(=O)(=O)N2CCOCC2)ccc1Cl)c1ccccc1F | -6%
COc1ccc(/C=N/Nc2ccc(C(=O)O)cc2)cc1Br | -4%
S=C(NCCCc1cnc[nH]1)NCCCN(CCc1ccccc1)c1ccc(Br)cn1 | -7%&-20%
CCC(=O)OCCn1c(=O)c2ccccc2c2ccccc2c1=O | -16%
CCOc1ccc(NC(=O)CCc2nnc3ccc(N4CCC(C)CC4)nn23)cc1 | -7%
Cc1onc(-c2ccccc2)c1NC(=O)N(CCC#N)Cc1cccs1 | -19%
Cc1sc(NC(=O)Cn2cnnn2)nc1-c1ccc(Cl)cc1 | -25%
COc1ccc(/C=C/c2ccc3cccc(O)c3n2)c(OC)c1OC | -3%
CCCCNC(=S)N(C)/N=C/c1ccc(OCC(=O)Nc2ccc(OC)cc2)c(OC)c1 | 13%
CC(=O)c1c(C)[nH]c(C(=O)N2CCN(c3ccc(F)cc3)CC2)c1C | 7%
COc1cc(CNC(=O)CCC(=O)N2C[C@H]3C[C@H](C2)c2cccc(=O)n2C3)cc(OC)c1OC | -23%
CN(C)S(=O)(=O)c1ccc(N2CCOCC2)nc1 | 1%
C=C1CCC[C@]2(C)C[C@H]3OC(=O)C(CN4CC(C)OC(C)C4)[C@H]3C[C@@H]12 (stereo partly drawn) | -1%
O=C(CNC(=O)C12CC3CC(CC(C3)C1)C2)OCC(=O)N1CCCCC1 | 5%
O=C(c1ccc2c(c1)OCO2)N1CCc2ccccc21 | 4%
Cc1ccccc1-n1nc(C(=O)c2cccs2)cc(-c2nc3ccccc3[nH]2)c1=N | 32%[activator]
NC(=O)c1ccsc1NC(=O)C1CCN(S(=O)(=O)c2cccs2)CC1 | -26%
COCCNc1nc(NCc2cccc(Cl)c2)c2cnn(C)c2n1 | -5%
CN(C)CCCN1c2ccccc2Sc2ccc(Cl)cc21 | u

Not all compounds are listed; the hit share may differ from the screen's.
